Compound activity (PubChem)
NPYLR7 ag: activates Aedes aegypti NPYLR7 receptor. HEK293T NPYLR7/Galpha15, GCaMP6s calcium fluorescence. activation, % at 10 µM. 0.15% of 270,000 active; in the data active means activation above about 40%;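 further: 0% = vehicle and 100% = reference agonist at the receptor; some compounds past the cut are filed as inactive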
NPYLR7 ag max-min: recorded beside NPYLR7 ag, whose call it bears; activation, %; measured here: Max-Min RFU normalised activation; some inactives read as strong as hits;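 span of the calcium signal over five minutes; 0% = vehicle and 100% = native peptide agonist; compound fluorescence can raise it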
* marks the source's active call; other numbers are inactive results; & = joins results of further samples. The list is partial; count on the stated rates, not on these rows.

Results follow in this order: NPYLR7 ag | NPYLR7 ag max-min
[1] O=C(NCCc1nc2ccccc2[nH]1)c1cnn2ccccc12
 : -1.6 | 3.2
[2] CCCCCCOc1ccc(-c2nc3ccc(Br)cc3c(=O)o2)cc1
 : 1.2 | -1.8
[3] Cc1cccc(C(C)OC(=O)C(C)(C)C#N)c1 (stereo unspecified)
 : -2.7 | -7.5
[4] COC(=O)C1=C(O)/C(=C\c2ccc(N(C)C)cc2)SC1=Nc1ccc(OC)c(OC)c1
 : 6.5 | 3.4
[5] COCCN(Cc1cccs1)S(=O)(=O)NCc1ccccc1
 : -0.4 | 2.5
[6] CCC1(C)Cc2ccccc2-c2c1c(=O)n(-c1ccc(C)cc1)c1nnnn21 (stereo unspecified)
 : 4.9 | 4.7
[7] COCCOC(=O)C1=C(C)N(C)C(=S)NC1c1ccc(NC(=O)Nc2c(Cl)cccc2Cl)cc1 (stereo unspecified)
 : 2.6 | 14.1
[8] CCOc1cc(/C=C2\C(=O)N(c3nc(-c4ccc(Br)cc4)cs3)N=C2c2ccccc2)ccc1O
 : 5.4 | 17.9
[9] CC(C)CN(Cc1cccn1Cc1ccccc1Cl)C(=O)CN(CC(C)C)C(=O)c1cccc(C(F)(F)F)c1
 : -4.2 | 6.3
[10] COc1cccc(OCC2c3ccsc3CCN2C(=O)CN(C(=O)c2cccc(F)c2)C2CC2)c1 (stereo unspecified)
 : -2.8 | 3.0
[11] CCCc1c(C)nn(-c2ccc(C(=O)NC(C)(Cc3ccccc3)C(=O)OC)cc2)c1C (stereo unspecified)
 : -9.5 | -16.9
[12] COc1ccc2oc(=O)c3c(c2c1)CC(C(F)(F)F)S3 (stereo unspecified)
 : 1.2 | 2.7
[13] O=C(NCCn1ncc2c(N3CCCCCC3)ncnc21)c1ccc(S(=O)(=O)N2CCCC2)cc1
 : 0.2 | -1.5
[14] CC1Cc2ccccc2N1Cc1cc(=O)c(OCc2ccc(Cl)c(Cl)c2)co1 (stereo unspecified)
 : -1.6 | 20.3
[15] O=C(c1cc(-c2ccc(F)cc2)nc2cc(-c3ccccc3)nn12)N1CCN(c2cccc(C(F)(F)F)c2)CC1
 : -1.0&-10.8 | 6.1&-3.9
[16] CCOC(=O)c1sc2nc(-c3ccccc3)cc(C(F)(F)F)c2c1N
 : 4.4 | -2.1
[17] O=C1Cc2cc(S(=O)(=O)N3CCN(C4CCS(=O)(=O)C4)CC3)ccc2N1 (stereo unspecified)
 : -5.4&-3.8 | -7.2&10.6
[18] Cc1cc(C)n(C)c(=O)c1C(=O)N1CCOC(C(F)(F)F)C1 (stereo unspecified)
 : 2.6 | 3.0
[19] Cc1cc(Cl)ccc1Oc1ncccc1C#N
 : 4.3 | 1.1
[20] N#CCSc1nc(-c2cccs2)ccc1C#N
 : -8.8 | -13.4
[21] Cc1cccc(C)c1NC(=O)CCCSCc1ncc(C(C)C)o1
 : 1.0 | 6.1
[22] COCCN(C)C(=O)CC1(C)N=C(c2cccc(-c3ccccc3)c2)N(C)O1 (stereo unspecified)
 : 6.4 | 3.1
[23] Clc1ccc(N2CCN(Cc3nc(-c4cccs4)no3)CC2)nc1
 : 11.7 | 2.2
[24] O=C(NCCCn1c(=O)[nH]c2ccccc21)c1csc(=Nc2ccccc2)n1Cc1cccs1
 : 7.9 | 7.2
[25] CCCCn1c(=O)c2c(nc3oc(-c4ccc(Cl)cc4)cn32)n(C)c1=O
 : 0.2 | 10.1
[26] CC(=O)c1ccc(C(=O)N(CCCN(C)C)c2nc3c(C)c(C)ccc3s2)cc1
 : 1.0 | -0.9
[27] CC1=NN(CC(=O)c2ccc(F)cc2)c2nc3c(c(=O)n(C)c(=O)n3C)n2C1
 : 5.4 | -0.9
[28] COCCNC(=O)C(NC(=O)c1ccc2c(c1)OCO2)C1CCN(C(=O)NC(C)C)CC1 (stereo unspecified)
 : 7.2 | 4.3
[29] CN(C)CCCN(C)C1CCCNC1 (stereo unspecified)
 : 8.0 | 5.7
[30] C=CCn1c(-c2ccc([N+](=O)[O-])cc2)n[nH]c1=S
 : -6.4 | -11.4

4 of the compounds above, bar-delimited.
no. | canonical_smiles | NPYLR7 ag | NPYLR7 ag max-min
12 | COc1ccc2oc(=O)c3c(c2c1)CC(C(F)(F)F)S3 (stereo unspecified) | 1.2 | 2.7
2 | CCCCCCOc1ccc(-c2nc3ccc(Br)cc3c(=O)o2)cc1 | 1.2 | -1.8
28 | COCCNC(=O)C(NC(=O)c1ccc2c(c1)OCO2)C1CCN(C(=O)NC(C)C)CC1 (stereo unspecified) | 7.2 | 4.3
13 | O=C(NCCn1ncc2c(N3CCCCCC3)ncnc21)c1ccc(S(=O)(=O)N2CCCC2)cc1 | 0.2 | -1.5

The list continues.
Results follow in this order: NPYLR7 ag | NPYLR7 ag max-min
[31] CC1CN(C(=O)c2ccc(NC(=O)C3CC3)s2)CC(C)O1 (stereo unspecified)
 : 1.8 | 2.9
[32] Cn1c(CNCc2cccnc2N2CCCC(O)C2)nc2ccccc21 (stereo unspecified)
 : -2.9 | -10.9
[33] O=C(c1cccc(Br)c1)N1CCc2nc(-c3ccccc3)nc(N3CCOCC3)c2C1
 : 25.1 | 25.4
[34] NC(=O)c1cnn(CCOC(=O)CC2CCc3ccccc32)c1N (stereo unspecified)
 : 3.6&-2.6 | 1.4&-4.7
[35] CC1(C(=O)NS(=O)(=O)c2ccc(C#N)cc2)CCN1C(=O)Cc1ccc(-c2ccccc2)cc1 (stereo unspecified)
 : 3.8 | 1.8
[36] COc1ccccc1C(=O)NCC(=O)N=Nc1c(O)n(CCc2ccccc2)c2ccccc12
 : -2.7 | -7.9
[37] O=S(=O)(NC1=NCCC1)c1cccc(NS(=O)(=O)c2ccc3c(c2)CCCC3)c1
 : 6.5 | 11.6
[38] Cc1c(S(=O)(=O)c2ccc(Cl)cc2)csc1C(=O)O
 : -1.6 | -4.6
[39] CCOC(=O)C(C)Sc1nc2cc(S(=O)(=O)N3CCCC3)ccc2n1C1CCCC1 (stereo unspecified)
 : 2.1 | -1.8
[40] Cc1nccn1-c1ccc(NC(=O)C2CCCN(Cc3ccc4nsnc4c3)C2)cc1 (stereo unspecified)
 : 2.3&-4.1 | -4.7&-5.1
[41] COCCCN(CC(=O)N(Cc1cccn1Cc1ccccc1Cl)CC(C)C)C(=O)CCc1ccccc1
 : 0.6 | 14.3
[42] CCOC(=O)c1ccc(NC(=O)N(CCCOC)CC(=O)N(CCc2ccc(OC)c(OC)c2)Cc2ccco2)cc1
 : -10.8 | -14.3
[43] O=C(OCC(=O)C12CC3CC(CC(C3)C1)C2)C1CCCN1c1ncccn1 (stereo unspecified)
 : 9.2 | 6.8
[44] O=C(c1csc(CSc2nnc(Cc3ccccc3)n2-c2ccccc2)n1)N1CCC2(CC1)OCCO2
 : 0.4 | 14.0
[45] O=C(COc1ccc(Br)cc1)NNC(=O)c1ccco1
 : -4.2 | -8.8
[46] C=CCOC(=O)C1=C(C)NC(=O)NC1c1cccc(Cl)c1 (stereo unspecified)
 : 0.2 | 2.2
[47] COc1ccccc1C(=O)N1CCC(=O)N(C)C[C@H]2CN(C)c3ccccc3[C@@H]21
 : 1.7 | 7.7
[48] NC(=O)C1CC(O)CN1c1nc(N2CCCC2)nc(N2CCCC2)n1 (stereo unspecified)
 : 0.6 | -0.5
[49] N#Cc1c(N)oc(-c2cccs2)c1-c1cccs1
 : -0.5 | -2.0
[50] O=C(O)c1cc(-c2ccncc2)cc(S(=O)(=O)N2CCCC2)c1
 : 31.2 | 10.8
[51] COCCCn1c(CN2CCCC(C(=O)c3ccccc3)C2)cnc1S(C)(=O)=O (stereo unspecified)
 : 2.3 | -0.9
[52] CNS(=O)(=O)c1cccc(C(=O)OCC(=O)N/N=C2\CC3CCC2(C)C3(C)C)c1 (stereo unspecified)
 : -0.6 | 16.7
[53] O=C(COc1cccnc1)N1CCC(c2[nH]ncc2-c2cccc(F)c2)CC1
 : 14.2 | 0.7
[54] CC1CC(C)CN(S(=O)(=O)c2ccc3c(c2)CCCC(=O)N3)C1 (stereo unspecified)
 : -4.2 | -5.5
[55] O=C(Nc1c2c(nn1-c1ccccc1)CSC2)C12CC3CC(CC(C3)C1)C2
 : -3.6 | -5.0
[56] COc1cccc(NC(=O)CSc2nccn3nc(-c4ccc(C)cc4)cc23)c1
 : -0.8 | -7.1
[57] Cc1cccc(-n2nc(CC(C)C)nc2-c2ccnc(-n3cnnc3)c2)c1
 : -9.3 | -17.4
[58] COc1ccc(C)cc1NC(=O)Cc1csc(NC(=O)c2ccc[nH]c2=O)n1
 : 4.5 | 7.7
[59] Cc1ccccc1S(=O)(=O)N1CCN(C2c3ccccc3CCc3ccccc32)CC1
 : 5.3 | 3.2
[60] CCCCc1ccc(C(=O)Nc2ccc(N3CCCC3)c(C(=O)N(CC)CC)c2)cc1
 : 5.2&17.9 | 6.1&21.1

Grouped by structure, the compounds so far with a furan ring, fused or not
Results follow in this order: NPYLR7 ag | NPYLR7 ag max-min
[42] CCOC(=O)c1ccc(NC(=O)N(CCCOC)CC(=O)N(CCc2ccc(OC)c(OC)c2)Cc2ccco2)cc1
 : -10.8 | -14.3
[45] O=C(COc1ccc(Br)cc1)NNC(=O)c1ccco1
 : -4.2 | -8.8
[49] N#Cc1c(N)oc(-c2cccs2)c1-c1cccs1
 : -0.5 | -2.0

Among those listed so far, these have bromine:
Results follow in this order: NPYLR7 ag | NPYLR7 ag max-min
[2] CCCCCCOc1ccc(-c2nc3ccc(Br)cc3c(=O)o2)cc1
 : 1.2 | -1.8
[8] CCOc1cc(/C=C2\C(=O)N(c3nc(-c4ccc(Br)cc4)cs3)N=C2c2ccccc2)ccc1O
 : 5.4 | 17.9
[33] O=C(c1cccc(Br)c1)N1CCc2nc(-c3ccccc3)nc(N3CCOCC3)c2C1
 : 25.1 | 25.4
[45] O=C(COc1ccc(Br)cc1)NNC(=O)c1ccco1
 : -4.2 | -8.8

Next section.
Results follow in this order: NPYLR7 ag | NPYLR7 ag max-min
[61] CC(C)(C)c1cc(N2CCOCC2)n2ncc(-c3ccccc3)c2n1
 : -0.4 | 4.6
[62] COc1ccc(-c2cc(C(=O)N3CCN(Cc4ccc5c(c4)OCO5)CC3)c(C)n2-c2ccc(C)cc2)cc1
 : -7.3 | -0.9
[63] COc1cc(OC)cc(C(=O)Nc2nnc(SCC(=O)c3ccc(C)cc3)s2)c1
 : 6.7 | 12.2
[64] CN(Cc1cccc(C#N)c1)Cc1ccc(Cl)c2cccnc12
 : 7.5 | 3.7
[65] COCc1cc(=O)n2[nH]c(C)c(-c3ccccc3)c2n1
 : -2.9 | -2.7
[66] O=C(CCNc1nc(C2CC2)nc2cc(Cl)ccc12)Nc1ccc(F)cc1
 : 7.5 | 15.2
[67] CCN(C(=O)C(C)N1CCN(S(=O)(=O)c2ccccc2)CC1)C1CCCCC1 (stereo unspecified)
 : 3.6 | 15.8
[68] CC(C)c1cc(C(=O)N(C)Cc2cccc(-n3cccn3)c2)nc(N)n1
 : -13.3 | -15.4
[69] CN(C)CCN1C(=O)CC(CC(=O)N2CCN(C3CCCCC3)CC2)(c2ccccc2F)C1=O (stereo unspecified)
 : 24.1 | 8.6
[70] Cc1nc(CC(=O)N2CCn3c(C(N)=O)cnc3C2)c(C)s1
 : 16.0 | 12.4
[71] O=C(NCc1nnc2n1CCCCC2)c1cn(Cc2ccc(F)cc2)nn1
 : -4.6 | -4.4
[72] O=C1CCC(C(=O)N2CCN(Cc3cccc(F)c3)CC2)CN1CCCc1ccccc1 (stereo unspecified)
 : -5.6 | -6.9
[73] COc1ccccc1N1CCN(C(=O)Cc2csc(NC(=O)CN(C(=O)c3ccc(Cl)c(Cl)c3)C(C)C)n2)CC1
 : 27.4 | 23.1
[74] CC(C)(C)c1ccc(-c2nc3ccccn3c2NC2CCCCC2)cc1
 : -4.4 | 0.8
[75] CC(C)c1cccc(NC(=O)NC2CCCC2n2ccnc2)c1 (stereo unspecified)
 : 8.6 | 4.2
[76] COc1cc2c(cc1OC)C(c1ccccc1Cl)N(C(=O)c1cccc3cc[nH]c13)CC2 (stereo unspecified)
 : 20.3 | 5.6
[77] CCc1ncc(CN2CCCC(C(=O)Nc3cccc(-c4ccc(F)cc4)c3)C2)cn1 (stereo unspecified)
 : 0.8&8.7 | -1.4&0.4
[78] CC(NC(=O)c1nc2ccccn2c1F)C(C)(C)C (stereo unspecified)
 : -3.3 | -2.7
[79] CCN(Cc1nc(C)no1)C(=O)c1cccc(C#CC(C)(C)O)c1
 : 22.6 | 15.3
[80] Fc1ccc(Cn2nnc3c(SCc4ccccn4)ncnc32)cc1
 : 7.9 | 16.2
[81] CN(C)c1ccc(CC(=O)N2CCCCC2c2cc(C(=O)Nc3ccccc3Cl)no2)cc1 (stereo unspecified)
 : 15.0 | 9.9
[82] O=C(c1ccco1)N1CCN(c2nccn3c(-c4ccc(CO)cc4)cnc23)CC1
 : -5.2 | -12.3
[83] NC(=O)c1cnc(N2CC(O)C(N3CCCC3)C2)c(Cl)c1 (stereo unspecified)
 : 5.0 | 2.9
[84] CC(=O)Nc1cc(-c2ccccc2)nn1-c1ccc(C(=O)N2CCOCC2)cc1
 : -5.1 | -11.5
[85] CCOC(=O)C1=C(C)NC(C)=C(C(=O)OCC)C1c1ccco1
 : 10.5 | 7.3
[86] COc1cc(Nc2nccc3[nH]c(-c4cccs4)nc23)cc(OC)c1OC
 : -5.0 | -10.9
[87] CN1CCCC[C@]2(C[C@H](C(=O)O)[C@H](c3ccccc3)N2C(=O)c2ccccc2)C1=O
 : 2.9 | 14.0
[88] CCCCC1CN(CCNC(=O)c2ccc(OC)c(OC)c2OC)Cc2ccccc2O1 (stereo unspecified)
 : 13.4 | 7.9
[89] CCn1cncc1CNc1ncnc2c1CCN(C(=O)C1CC1)C2
 : 5.6 | 0.7

Full records, looked up by structure. Screens in order: NPYLR7 ag, NPYLR7 ag max-min
CCN(C(=O)C(C)N1CCN(S(=O)(=O)c2ccccc2)CC1)C1CCCCC1 (stereo unspecified) across the screens: 3.6, 15.8
CN(C)CCN1C(=O)CC(CC(=O)N2CCN(C3CCCCC3)CC2)(c2ccccc2F)C1=O (stereo unspecified) across the screens: 24.1, 8.6
